VACV mCherry inh: qHTS for Stage-Specific Inhibitors of Vaccinia Orthopoxvirus: mCherry Reporter Primary qHTS; Vaccinia virus mCherry reporter infection, fluorescence; about a quarter of the inactives have no number; Potency, µM (titrated, usually from 36.5 µM), without a hit: at the highest dose activity change, negative = inhibition, actives largely listed as inhibitors; 0.63% of 310,000 active; active = well fitted inhibition curve with a large enough effect; inconclusive = small, poorly fitted or top-dose-only effect; inactive = no such curve, though single readings can be large or run the other way; tested in A549 cells; further: nearly all actives have a fitted effect of over 35% in size; inactives centre near -10
VACV Venus inh: qHTS for Stage-Specific Inhibitors of Vaccinia Orthopoxvirus: Venus Reporter Primary qHTS; 0.46% of 330,000 active; Potency, µM (series often up to 36.5 µM), for inactives: at the highest dose activity change, negative = inhibition, most hits filed as inhibitors; Vaccinia virus Venus reporter expression, fluorescence; AID 720580, 2013; active means well fitted inhibition curve with a large enough effect; inconclusive means small, poorly fitted or top-dose-only effect; inactive means no such curve, though single readings can be large or run the other way; tested in A549 cells; further: nearly all actives have a fitted effect of over 30% in size; inactives centre near -10
Numbers without * were called inactive; i = inactive; ? = inconclusive; . = no result given; & = joins results of further samples; [ ] = remark or other dose. On the % scale 0 is the no-effect control and ±100 the full control effect; potency means the concentration at half of the fitted maximal effect.

SMILES | VACV mCherry inh | VACV Venus inh
COc1ccc(N2C(=O)c3ccccc3NC(=O)C2C(=O)NCC(C)C)cc1 (stereo not given) | ? | 4%
COc1cccc(/C=N/Nc2ccc([N+](=O)[O-])cc2)c1O | ? | -30%
COc1ccnc(-n2cccc2C=O)c1C#N | -2% | -2%
CCc1ccc(C2=NN(CCC(=O)NCCc3ccccc3)C(=O)CC2)cc1 | -11% | -9%
Cc1ccccc1C(=O)NC1CCN(C(=O)NCc2ccccc2)CC1 | -11% | -1%
CCCS(=O)(=O)N1CC(=O)N(c2ccc(C)cc2C)C(C)(C(=O)NC2CCCCCC2)C1 (stereo not given) | i | -15%
CCN(C(=O)CSc1nnnn1C)C1CCS(=O)(=O)C1 (stereo not given) | -1% | -2%
C=CCn1c(O)c(C(CC)=Nc2ccc(NC(C)=O)cc2)c(=O)[nH]c1=O | -1% | -11%
O=C(Cn1cnc2c(nnn2-c2ccc(F)cc2)c1=O)NCC1CCCO1 (stereo not given) | -10% | 1%
Cc1ccccc1C(=O)c1cccn1CC(=O)NC(C)c1ccccc1 (stereo not given) | -18% | -18%

Complete entries, looked up by structure. Order of values: VACV mCherry inh	VACV Venus inh
`Cc1ccccc1C(=O)NC1CCN(C(=O)NCc2ccccc2)CC1` in the list: -11%	-1%
`C=CCn1c(O)c(C(CC)=Nc2ccc(NC(C)=O)cc2)c(=O)[nH]c1=O` in the list: -1%	-11%

Additional compounds
SMILES | VACV mCherry inh | VACV Venus inh
O=C(COC(=O)c1cccc(C(=O)OCC(=O)NC2CC2)n1)NC1CC1 | -12% | -5%
O=C(Cc1cccs1)Nc1ccc(Cl)c(S(=O)(=O)N2CCOCC2)c1 | i | -14%
Cc1ccc(C2NC(=NCc3ccccc3)Nc3nc(C)cc(=O)n32)cc1 (stereo not given) | i[7.34 µM] | -12%[7.34 µM]
Cc1sc(NC(=O)CN(Cc2ccccc2)C(=O)C(C)C)c(C(N)=O)c1C | -1% | -23%
CCN(CC(=O)Nc1ccc(OC)cc1)C(=O)c1ccc(Cl)c(S(=O)(=O)N2CCCC2)c1 | -21% | -20%
Cc1ccc(S(=O)(=O)n2nc(OC(=O)c3c(F)cccc3Cl)cc2N)cc1 | -27% | -17%
CN(Cc1ccccc1)Cc1c(O)ccc2c(=O)c(-c3ccccc3)c(C(F)(F)F)oc12 | -14% | -11%
CC1CCN(C(=O)c2[nH]cnc2C(=O)Nc2ccccc2F)CC1 | -6% | -22%
Cc1ccc(C)c(CN2CCCN(Cc3cc(C)ccc3C)S2(=O)=O)c1 | 2%&-19% | -12%&5%
CN(C)Cc1c(C(=O)N/N=C/C2CC=CCC2)nnn1-c1nonc1N (stereo not given) | -3% | 0%
CC(C)=CCc1c(O)cc(O)c2c1OC(c1ccc(O)cc1)CC2=O (stereo not given) | i | -20%
COc1ccc(/C=N/NS(=O)(=O)c2ccc(NC(C)=O)cc2)cc1 | 3% | -7%
Cc1nc(Nc2ccc(F)cc2)nc(Nc2ccc(F)cc2)c1[N+](=O)[O-] | ? | -23%
CCCCN(C)C(=O)Cn1cnc2sc(C)cc2c1=O | . | -31%
Cc1cc(S(=O)(=O)NCC(C)C)ccc1OCC(=O)N1CCN(Cc2ccccc2)CC1 | . | ?
COc1ccc(Cc2nnc(Nc3ccccc3)s2)cc1Br | -11% | 63%[activator]
O=[N+]([O-])c1cc(S(=O)(=O)Nc2ccccc2)ccc1Nc1ccccc1 | ? | -12%
Cc1ccc(-c2nc(C#N)c(N3CCCCC3)o2)cc1 | i | -8%
CC(=O)Nc1cc(NC(C)=O)cc(C(=O)N2CCCC3CCCCC32)c1 (stereo not given) | -5% | 1%
Cc1cc(NC(=O)CN2C(=O)/C(=C/c3ccc(C(C)C)cc3)SC2=S)no1 | -6% | -12%
Cc1cccc(NS(=O)(=O)c2ccc(C)c(C(=O)NCCCN3CCOCC3)c2)c1 | i | -13%
COc1cc(C(C(=O)NC2CCCCC2)N(Cc2ccco2)C(=O)c2cnccn2)cc(OC)c1OC (stereo not given) | -11% | 7%
Cc1cccnc1C(NC(=O)C1CCN(CCCc2ccccc2)CC1)c1ccc(Cl)cc1 (stereo not given) | 12% | -23%
COc1ccc(NC(=S)Nc2cccc(Cl)c2)cc1OC | -10% | -5%
O=C(Cc1ccccc1)Nc1cc(-c2nc3cc(Cl)ccc3o2)ccc1Cl | 10% | 19%
CC(C)CNS(=O)(=O)c1ccc(CCC(=O)N2CCN(Cc3ccc4c(c3)OCO4)CC2)cc1 | ? | ?
COC(=O)[C@H]1C[C@H](OC(=O)Nc2cccs2)[C@@]2(O)CN(S(=O)(=O)c3ccc(C)cc3)CC2[C@H]1C(=O)OC (stereo not given in full) | -9% | -20%
O=C(Cc1ccccc1)N1CCN(Cc2cccc(Cl)c2)CC1 | i | -10%
COc1ccc(C(=O)NCCN2CCOCC2)cc1OC | . | -6%
CCSc1cc(N2CCCC2)nc(-c2ccccc2Cl)n1 | 6% | 8%
COc1ccc2c(c1)-c1nc(-n3ncc(C(=O)NCC4CCCN(C)C4)c3C3CC3)ncc1CC2 (stereo not given) | -14% | 0%
CCOC(=O)C(=CNc1ccc(C(F)(F)F)cc1Cl)C(=O)OCC | i[7.34 µM] | -9%[7.34 µM]
CCN(c1ccccc1)S(=O)(=O)c1cccc(C(=O)NCc2ccccc2CN2CCOCC2)c1 | -17% | -12%
CC(C)CC(=O)c1c[nH]c(C(=O)O)c1 | -8% | -3%
Oc1ccc(Nc2nc(-c3ccc(Cl)cc3)nc3ccccc23)cc1 | -27% | -26%
CCCCOc1ccc(C(=O)OCC(=O)Nc2cc(C)on2)cc1 | -3% | -8%
COc1ccc(CN2CCC(=O)N([C@H](CO)Cc3ccccc3)CC2)cc1 | -2% | -20%
O=C(O)c1ccccc1NN=Cc1ccccc1 | ? | 1%
Cc1nc(CN2CCN(C(=O)CC3(c4ccccc4Cl)CC(=O)N(C)C3=O)CC2)cs1 (stereo not given) | -7% | 2%
COc1ccc(S(=O)(=O)N2CCCC(C(F)(F)F)C2)cc1 (stereo not given) | i | -7%

Rewritten with two lines to a compound: part of the list above.
The line under a structure holds: VACV mCherry inh, VACV Venus inh
> Cc1cccc(NS(=O)(=O)c2ccc(C)c(C(=O)NCCCN3CCOCC3)c2)c1
 : i, -13%
> COc1cc(C(C(=O)NC2CCCCC2)N(Cc2ccco2)C(=O)c2cnccn2)cc(OC)c1OC (stereo not given)
 : -11%, 7%
> Cc1cccnc1C(NC(=O)C1CCN(CCCc2ccccc2)CC1)c1ccc(Cl)cc1 (stereo not given)
 : 12%, -23%
> COc1ccc(NC(=S)Nc2cccc(Cl)c2)cc1OC
 : -10%, -5%
> O=C(Cc1ccccc1)Nc1cc(-c2nc3cc(Cl)ccc3o2)ccc1Cl
 : 10%, 19%
> CC(C)CNS(=O)(=O)c1ccc(CCC(=O)N2CCN(Cc3ccc4c(c3)OCO4)CC2)cc1
 : ?, ?
> COC(=O)[C@H]1C[C@H](OC(=O)Nc2cccs2)[C@@]2(O)CN(S(=O)(=O)c3ccc(C)cc3)CC2[C@H]1C(=O)OC (stereo not given in full)
 : -9%, -20%
> O=C(Cc1ccccc1)N1CCN(Cc2cccc(Cl)c2)CC1
 : i, -10%
> COc1ccc(C(=O)NCCN2CCOCC2)cc1OC
 : ., -6%
> CCSc1cc(N2CCCC2)nc(-c2ccccc2Cl)n1
 : 6%, 8%
> COc1ccc2c(c1)-c1nc(-n3ncc(C(=O)NCC4CCCN(C)C4)c3C3CC3)ncc1CC2 (stereo not given)
 : -14%, 0%
> CCOC(=O)C(=CNc1ccc(C(F)(F)F)cc1Cl)C(=O)OCC
 : i[7.34 µM], -9%[7.34 µM]
> CCN(c1ccccc1)S(=O)(=O)c1cccc(C(=O)NCc2ccccc2CN2CCOCC2)c1
 : -17%, -12%
> CC(C)CC(=O)c1c[nH]c(C(=O)O)c1
 : -8%, -3%
> Oc1ccc(Nc2nc(-c3ccc(Cl)cc3)nc3ccccc23)cc1
 : -27%, -26%
> CCCCOc1ccc(C(=O)OCC(=O)Nc2cc(C)on2)cc1
 : -3%, -8%
> COc1ccc(CN2CCC(=O)N([C@H](CO)Cc3ccccc3)CC2)cc1
 : -2%, -20%

Additional records:
SMILES | VACV mCherry inh | VACV Venus inh
COC(=O)c1ccc2nc(C3CCCCC3)c(Cc3cccc(Cl)c3)n2c1 | i | 1%
CCCC(=O)OCC1CN(Cc2ccco2)S(=O)(=O)c2c(F)cccc2O1 (stereo not given) | i | -10%
COc1ccc(C(=O)Nc2ccc(N3CCOCC3)cc2)cc1S(=O)(=O)N1CCCC1 | -25% | -14%
Cc1cccc(C(=O)Nc2cccc(OCc3cc(=O)n4ccccc4n3)c2)c1 | i | -12%
CCOc1ccc(-n2c(SCC(=O)Nc3ccc4c(c3)OCCO4)nc3c(c2=O)SCC3)cc1 | -8% | -15%
Cc1ccccc1C(=O)Nc1ccc(OCc2cc(=O)n3cccc(C)c3n2)cc1 | -10% | -7%
O=C(c1cnccn1)N(Cc1cccs1)C1(C(=O)NC2CCCC2)CCCCC1 | -4% | 4%
CCCC(=O)Nc1nnc(-c2ccccc2)o1 | i | -18%
O=C(NNC(=S)NCC1CCCO1)c1cc(Br)ccc1Cl (stereo not given) | i | -12%
Cc1cc(C(=O)N/N=C/c2ccc(OC(=O)c3ccccc3Br)cc2)n[nH]1 | -18% | -5%
COC(=O)[C@]12CCCCC=C1N(CCc1ccc(OC)c(OC)c1)C(=O)[C@H](CC(=O)N1CCCCC1)C2 | 26% | 1%
COc1ccc(CC(=O)n2[nH]c(=O)ccc2=O)cc1OC | i[7.34 µM] | -2%[7.34 µM]
CCSc1nnc(C(C)NS(=O)(=O)c2cccc(Cl)c2C)n1C (stereo not given) | -1% | 0%
O=C(NCCc1ccccc1)c1c[nH]c2ccc(S(=O)(=O)Nc3ccccc3F)cc2c1=O | -6% | 1%
COC(=O)c1ccc(COC(=O)CCC(=O)c2cccs2)cc1 | i | -10%
CC(C)(CNC(=O)/C=C/c1ccc(F)cc1)CNC(=O)/C=C/c1ccc(F)cc1 | -3% | ?
O=C(NCc1ccc(Cl)cc1)C1CCN(C(=O)Cc2ccccc2)CC1 | -1% | -5%
O=C(CC1N=C(Cc2ccccc2)NNC1=O)N/N=C/c1ccc([N+](=O)[O-])cc1 (stereo not given) | -6% | -3%
COc1ccc(CN2CCC2(C)C(=O)NCCc2c[nH]c3ccccc23)c2ccccc12 (stereo not given) | -1% | 5%
Cc1cccc(Nc2c(-c3cccs3)nc3nc(C)cc(C)n23)c1 | -18% | -18%
Cc1c(NC(=O)Nc2ccc(Cl)c(Cl)c2)sc2nc3n(c(=O)c12)CCC(C)CC3 (stereo not given) | ? | ?
CCOc1ccc(-n2nc(CO)c(C(=O)NCc3cccnc3)n2)cc1 | -10% | -17%
O=C(CBr)Nc1c2c(nn1-c1ccccc1)CSC2 | -9% | -10%
O=C(C[n+]1ccc(/C=N/O)cc1)N(Cc1ccccc1)Cc1ccccc1 | i | -6%
Cc1csc(SCC(=O)c2c(N)n(C)c(=O)n(C)c2=O)n1 | . | -12%
CC1CCCN(S(=O)(=O)CCNC(=O)c2ccc3c(c2)OCO3)C1 (stereo not given) | -9% | 2%
Clc1ccc(NC2=NCCCS2)cc1Cl | -10% | -8%
O=C(NCC(=O)N(CCc1ccccc1)C(C(=O)NC1CCCC1)c1cccnc1)c1ccco1 (stereo not given) | -11% | -6%
Cc1cc(C(=O)CSc2ccc(F)cc2)cc(C)c1O | ? | -23%
COC(=O)[C@@H]1CCCN1C(=O)c1c(OC)cc(=O)n2c1CCN(Cc1ccc(C)o1)CC2 | -18% | -14%
Cc1ccc(-n2ncc3c2CC(C)(C)CC3NC(=O)CCN2CCCCC2=O)cc1 (stereo not given) | -2% | -11%
CC1=CC2=NC(=O)/C(=C/c3cccn3Cc3ccccc3)C(=N)N2O1 | i | -8%
O=C(O)C1CC1C(=O)N1CCN(c2ccc(Cl)c(Cl)c2)CC1 (stereo not given) | i | -13%
Cc1ccc(S(=O)(=O)Nc2cc3c(C(=O)Nc4ccccc4)c(C)oc3c3ccccc23)cc1 | -9% | 7%
CCN(CC)CCN(C(=O)CN1C(=O)c2ccccc2C1=O)c1nc2cc3c(cc2s1)OCO3 | -28% | -8%
C#CCOCCOCCOCCNc1nc(N2CCN(C(=O)[C@H]([C@@H](C)CC)n3cc([C@@H](N)CO)nn3)CC2)nc(N2CCN(C(=O)[C@H](CCCCN)n3cc([C@@H](N)C(C)CC)nn3)CC2)n1 (stereo not given in full) | ? | -16%
O=C1CC(c2ccc(Cl)cc2)c2c(O)cc(O)cc2O1 (stereo not given) | -16% | -3%
COc1ccc(C)cc1NC(=O)N1CCC(CO)(CC2CCCCO2)CC1 (stereo not given) | i | -15%

An unsorted share of the library; any-hit rate near 0.87%.
